Screening results as filed in PubChem BioAssay.
Vaccinia inh: blocks a specific stage of Vaccinia orthopoxvirus infection, primary screen, cell-based, single point; Vaccinia-infected cells, mCherry/Venus stage reporter fluorescence; active compounds read low; some inactives read as strong as hits; activity change (mCherry), % (concentration not given with the values); 0.01% of 89,000 active; AID 1053133, 2014;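 active = mCherry past -33% and 40 or more points under the early reporter, replicates agreeing; inconclusive = past -33% without that gap or agreement; tested in A549 cells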;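 also: scaled between vehicle wells and reference inhibitor wells; 23 nL library stock went into each well; one replicate is shown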
Vaccinia inh Venus: second read-out of Vaccinia inh, no call of its own (marks repeat the call); activity change (Venus), %; measured here: Venus reporter, other viral stage;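 negative = less Venus signal; first of two replicates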
Starred values were filed as active, the others as inactive; ? = inconclusive; . = not tested or not shown.

SMILES	Vaccinia inh	Vaccinia inh Venus
CNC(=O)C[C@H]1CC[C@@H]2[C@H](COc3ccc(NC(=O)c4ccc(OC)cc4)cc3C(=O)N2C)O1	6	-1
O=C(C[C@@H]1CC[C@H]2[C@@H](COC[C@@H](O)CN2Cc2cccc(-c3ccncc3)c2)O1)N1CCN(c2ccccc2)CC1	?	.
CCCN1C[C@H](C)[C@@H](OC)CN(C)C(=O)c2cc(NC(=O)c3ccc(F)cc3)ccc2OC[C@H]1C	-2	4
O=C([C@H]1[C@H](CO)[C@H]2Cn3c(cccc3=O)[C@H]2N1CCC(F)(F)F)N1CCCCC1	23	18
O=C(CN1CCOCC1)N[C@@H]1CC[C@H](CCNC(=O)C2CCC2)O[C@H]1CO	0	2
N#C[C@@H]1[C@@H](c2ccc(C3=CCCC3)cc2)[C@@H](CO)N1C(=O)C1CCC1	14	10
CC=Cc1ccc2n(c1=O)C[C@H]1[C@H](CO)[C@@H](C(=O)N3CCCCC3)[C@@H]2N1C(=O)C1CC1 (mixture of isomers)	13	-8
COCC#Cc1cnc2c(c1)C(=O)N([C@H](C)CO)C[C@@H](C)[C@H](CN(C)Cc1ccccc1)O2	11	1
C[C@H](CO)N1C[C@H](C)[C@H](CN(C)C(=O)Cc2ccccn2)Oc2cc(C#C[C@@H](C)O)ccc2S1(=O)=O	6	7
O=C1CNC[C@@H]2[C@H](c3ccc(Br)cc3)[C@@H](CO)N12	-5	-4
CO[C@@H]1CN(C)C(=O)c2cc(NC(=O)Cc3ccccc3)ccc2OC[C@@H](C)N(C)C[C@@H]1C	11	2
CCNC(=O)[C@@H]1[C@@H](CO)[C@@H]2Cn3c(ccc(C4=CCCC4)c3=O)[C@H]1N2S(=O)(=O)c1cn(C)cn1	26	11
COCC#Cc1cnc2c(c1)C(=O)N([C@@H](C)CO)C[C@@H](C)[C@@H](CN(C)C(=O)c1ccc3c(c1)OCO3)O2	16	4
C[C@H](CO)N1C[C@H](C)[C@@H](CN(C)S(=O)(=O)c2ccc(C(F)(F)F)cc2)OCc2ccccc2-c2ccccc2C1=O	?	.
CC(C)NC(=O)N(C)C[C@H]1OCCCC[C@@H](C)Oc2ccc(NS(=O)(=O)c3cccs3)cc2C(=O)N([C@H](C)CO)C[C@@H]1C	26	17
CN(C)CC(=O)N1CCCCN2[C@@H](CO)[C@@H](c3ccc(-c4cccc(C(=O)N(C)C)c4)cc3)[C@@H]2C1	27	2
O=C(CCN1CCCCC1)N[C@H]1CC[C@H](CCn2cc(-c3ccccc3)nn2)O[C@@H]1CO	-14	-6
C[C@@H]1CCCCO[C@H](CN(C)S(C)(=O)=O)[C@@H](C)CN([C@@H](C)CO)C(=O)c2cc(NC(=O)c3ccccc3)ccc2O1	-1	-1
Cc1ccccc1-c1ccc([C@@H]2[C@H](CO)N3CCCCN(CC4CC4)C[C@@H]23)cc1	-15	-19
COCC(=O)Nc1ccc2c(c1)C(=O)N(C)C[C@@H](OC)[C@H](C)CN(C(=O)c1ccncc1)[C@@H](C)CO2	8	10
O=C(c1cccnc1)N1C[C@H]2[C@@H](c3ccccc31)[C@H](CO)N2C(=O)C1CCCC1	15	17
COc1cccc(C#Cc2cnc3c(c2)C(=O)N([C@@H](C)CO)C[C@@H](C)[C@H](CN(C)C(=O)C2CC2)O3)c1	6	-1
CC(=O)N1[C@@H]2c3ccc(-c4ccccc4)c(=O)n3C[C@@H]2[C@@H](CO)[C@@H]1C(=O)N(C)C	6	10
C/C=C/c1cccc(-c2nc(C(=O)N3CCCCC3)cc3c2[C@@H](CCO)N(C(=O)NC(C)C)C3)c1	-6	-1
COCCOC(=O)N1C(=O)[C@@]2(c3cc(C#Cc4ccc(OC)cc4)ccc31)[C@H](c1ccccc1OCCO)N1[C@H](c3ccccc3)[C@H](c3ccccc3)OC(=O)[C@H]1[C@@H]2C(=O)N1CCN(c2ncccn2)CC1	-3	2
CO[C@H]1CN(C)C(=O)c2cc(NS(=O)(=O)c3cn(C)cn3)ccc2OC[C@@H](C)N(CC2CC2)C[C@H]1C	10	11
CC(C)CC#Cc1cnc2c(c1)C(=O)N([C@H](C)CO)C[C@H](C)[C@H](CN(C)Cc1ccccc1C(=O)O)O2	-6	-1
COCC#Cc1cnc2c(c1)C(=O)N([C@@H](C)CO)C[C@@H](C)[C@@H](CN(C)C(=O)C1CCCCC1)O2	0	-3
C[C@@H]1CCCCO[C@H](CN(C)Cc2ccc(Cl)c(Cl)c2)[C@H](C)CN([C@@H](C)CO)C(=O)c2cc(NS(=O)(=O)c3ccc(Cl)cc3)ccc2O1	?	.
C[C@H]1CN([C@@H](C)CO)C(=O)Cc2cc(NC(=O)C3CCCCC3)ccc2O[C@H]1CN(C)S(=O)(=O)c1cccs1	8	9
COc1ccc2c3c([nH]c2c1)[C@@H](CO)N(C(=O)c1ccccc1)CC31CN(C(=O)NC(C)C)C1	15	9
COc1ccc2c3c([nH]c2c1)[C@@H](CO)N(C(=O)C1CCC1)CC31CN(C(=O)NC(C)C)C1	1	-4
Cc1ccc(S(=O)(=O)N[C@H]2CC[C@H](CC(=O)NCCN3CCCCC3)O[C@@H]2CO)cc1	-4	-1
C[C@@H]1CCCCO[C@@H](CN(C)C(=O)NC2CCCCC2)[C@H](C)CN([C@H](C)CO)C(=O)c2cc(NS(=O)(=O)c3ccccc3)ccc2O1	?	.
C[C@H](O)C#Cc1cnc2c(c1)C(=O)N([C@H](C)CO)C[C@@H](C)[C@H](CN(C)Cc1cccc(C(=O)O)c1)O2	7	6
O=C(O)[C@H]1[C@H](CO)[C@H]2Cn3c(ccc(/C=C/c4ccccc4)c3=O)[C@H]2N1C(=O)C1CCCC1	11	15
C[C@@H](NC(=O)C[C@H]1CC[C@H]2[C@H](COc3ccc(NS(=O)(=O)c4ccc(Cl)cc4)cc3C(=O)N2C)O1)c1ccccc1	-19	-12
CNC[C@H]1Oc2c(NS(=O)(=O)c3ccc(OC)cc3)cccc2C(=O)N([C@@H](C)CO)C[C@H]1C	3	3
C[C@H](CO)N1C[C@H](C)[C@@H](CN(C)C(=O)Nc2cccc3ccccc23)Oc2ccc(NC(=O)Cc3cn(C)c4ccccc34)cc2CC1=O	19	12
COc1ccccc1NC(=O)N[C@H]1CC[C@@H](CCNS(=O)(=O)c2ccc(C)cc2)O[C@H]1CO	3	-4
O=C(Nc1ccc2c(c1)[C@@H]1C[C@H](CC(=O)N3CCOCC3)O[C@H](CO)[C@@H]1O2)Nc1ccccc1F	11	11
COc1ccccc1CNC(=O)C[C@@H]1C[C@H]2c3cc(NC(=O)c4cccnc4)ccc3O[C@H]2[C@@H](CO)O1	3	6
COc1ccccc1S(=O)(=O)N[C@H]1CC[C@@H](CC(=O)N2CCN(C)CC2)O[C@H]1CO	10	7
CN(C)CC(=O)N[C@H]1CC[C@H](CC(=O)NCc2ccccc2F)O[C@@H]1CO	7	6
CCCC#Cc1cnc2c(c1)C(=O)N([C@H](C)CO)C[C@H](C)[C@@H](CN(C)Cc1cccnc1)O2	0	-12
Cc1ccccc1-c1ccc([C@H]2[C@@H](CO)N3CCCCN(C(=O)CN4CCOCC4)C[C@@H]23)cc1	8	-3
C[C@H](CO)N1C[C@H](C)[C@@H](CN(C)Cc2ccccc2)OCCCC[C@H](C)Oc2ccc(NC(=O)c3ccncc3)cc2C1=O	-4	-10
COc1ccc(-c2cnc3c(c2)C(=O)N([C@@H](C)CO)C[C@@H](C)[C@@H](CN(C)Cc2cccnc2)O3)cc1	23	4
O=C(NCC[C@@H]1CC[C@H](NC(=O)Nc2cc(F)ccc2F)[C@@H](CO)O1)Nc1ccc(F)cc1	-14	-13
Cc1nn(C)cc1NC(=O)C[C@H]1CC[C@H]2[C@H](COc3ccc(NC(=O)c4cccc(F)c4)cc3C(=O)N2C)O1	3	0
CC(C)NC(=O)N[C@@H]1C[C@@H]2O[C@@H](CO)CC[C@@H]2O[C@@H]1CCc1ccc(-c2ccccc2F)cc1	-14	-27
Cc1cc(C(=O)Nc2cccc3c2O[C@H](CN(C)Cc2ccc(C(=O)O)cc2)[C@@H](C)CN([C@@H](C)CO)C3=O)n(C)n1	18	9
CCS(=O)(=O)N[C@H]1C=C[C@@H](CC(=O)Nc2ccc(-c3ccccc3)cc2)O[C@H]1CO	1	5
COc1ccc(-c2ccc([C@@H]3[C@@H](CO)N4C(=O)CN(C(=O)C5CCOCC5)C[C@H]34)cc2)cc1	1	-1
COc1ccc(NC(=O)Nc2ccc3c(c2)CC(=O)N([C@@H](C)CO)C[C@@H](C)[C@H](CN(C)S(=O)(=O)c2ccc(F)cc2)O3)cc1	9	7
C[C@@H]1CCCCO[C@@H](CN(C)C(=O)C2CCCCC2)[C@@H](C)CN([C@H](C)CO)C(=O)c2cc(NC(=O)Nc3ccccc3)ccc2O1	32	17
C[C@@H]1CN([C@H](C)CO)C(=O)c2cc(C#Cc3ccncc3)cnc2O[C@@H]1CN(C)Cc1ccncc1	-9	-4
C[C@H](CO)N1C[C@H](C)[C@H](CN(C)Cc2ccc(Oc3ccccc3)cc2)Oc2ccc(NC(=O)Cn3cnnn3)cc2CC1=O	-4	-5
C/C=C/c1ccc2c(c1)O[C@H](CN(C)C(=O)c1ccccn1)[C@H](C)CN([C@@H](C)CO)S2(=O)=O	16	4
O=C(C[C@H]1C=C[C@H](NC(=O)c2cnccn2)[C@H](CO)O1)NCc1ccccc1F	3	14

Next compounds
SMILES	Vaccinia inh	Vaccinia inh Venus
Cc1ccc(S(=O)(=O)N[C@@H]2CC[C@@H](CCn3cc(C4CCCCC4)nn3)O[C@@H]2CO)cc1	-6	-2
Cc1cc(C(=O)Nc2cccc3c2O[C@H](CN(C)Cc2ccc(C(=O)Nc4ccccc4N)cc2)[C@H](C)CN([C@@H](C)CO)C3=O)n(C)n1	-25	-16
O=C(C[C@@H]1CC[C@@H]2[C@H](COC[C@H](O)CN2CCC(F)(F)F)O1)NCc1ccc(Oc2ccccc2)cc1	?	.
C[C@H](CO)N1C[C@H](C)[C@@H](CN(C)C(=O)Nc2ccccc2F)Oc2cc(-c3ccccc3)ccc2S1(=O)=O	-7	-16
C[C@H](CO)N1C[C@H](C)[C@H](CN(C)C(=O)Nc2ccc(C(F)(F)F)cc2)OCCCC[C@H](C)Oc2ccc(NC(=O)Nc3ccc(F)cc3)cc2C1=O	-4	-4
CN1c2ccc(C#Cc3cccnc3)cc2[C@@H]2[C@@H](CCN2C(=O)C2CC2)[C@H]1CO	7	5
O=C(C[C@H]1CC[C@H]2[C@@H](COC[C@@H](O)CN2Cc2cc(F)cc(F)c2)O1)NC1CCCC1	21	8
COC(=O)C[C@@H]1C[C@H]2c3cc(NC(=O)C4CCC4)ccc3O[C@H]2[C@H](CO)O1	11	3
O=C(C[C@@H]1C[C@@H]2c3cc(NC(=O)C4CCC4)ccc3O[C@@H]2[C@H](CO)O1)NCC(F)(F)F	31	14
O=C(C[C@H]1CC[C@@H]2[C@H](COC[C@H](O)CN2C(=O)Nc2cc(Cl)cc(Cl)c2)O1)N1CCCCC1	-26	-25
O=C(NCc1ccncn1)[C@H]1[C@H](CO)[C@H]2Cn3c(ccc(-c4cccc(F)c4)c3=O)[C@H]2N1CC1CC1	2	9
COc1cccc(NC(=O)N[C@@H]2CC[C@@H](CC(=O)N3CCCCC3)O[C@H]2CO)c1	20	15
C[C@@H]1CN([C@H](C)CO)C(=O)c2ccccc2-c2ccccc2CO[C@H]1CN(C)C(=O)CCN(C)C	20	6
C[C@@H]1CN([C@H](C)CO)C(=O)c2cccc(NC(=O)NC3CCCCC3)c2O[C@H]1CN(C)S(=O)(=O)c1ccc(Cl)cc1	-14	-14
C/C=C/c1ccc2c(c1)O[C@@H](CN(C)C)[C@@H](C)CN([C@H](C)CO)S2(=O)=O	16	6
COc1ccc(CN(C)C[C@H]2Oc3ccc(NS(=O)(=O)c4ccc(OC)cc4)cc3C(=O)N([C@H](C)CO)C[C@H]2C)cc1	-10	-9
C[C@H](CO)N1C[C@H](C)[C@@H](CN(C)CC2CCCCC2)Oc2ccc(NS(C)(=O)=O)cc2C1=O	0	7
Cc1ccc(S(=O)(=O)N(C)C[C@H]2Oc3ccc(NC(=O)c4ccncc4)cc3C(=O)N([C@@H](C)CO)C[C@H]2C)cc1	3	3
CC(C)CC#Cc1ccc([C@@H]2[C@@H](CO)N3C(=O)CN(S(=O)(=O)c4ccccc4)C[C@@H]23)cc1	13	-2
OC[C@@H]1[C@@H](c2ccccc2)C2(CN(Cc3nccs3)C2)N1Cc1cccnc1	2	5

As a short view, part of the list above:
SMILES	Vaccinia inh	Vaccinia inh Venus
O=C(NCc1ccncn1)[C@H]1[C@H](CO)[C@H]2Cn3c(ccc(-c4cccc(F)c4)c3=O)[C@H]2N1CC1CC1	2	9
COc1cccc(NC(=O)N[C@@H]2CC[C@@H](CC(=O)N3CCCCC3)O[C@H]2CO)c1	20	15
C[C@@H]1CN([C@H](C)CO)C(=O)c2ccccc2-c2ccccc2CO[C@H]1CN(C)C(=O)CCN(C)C	20	6
C[C@@H]1CN([C@H](C)CO)C(=O)c2cccc(NC(=O)NC3CCCCC3)c2O[C@H]1CN(C)S(=O)(=O)c1ccc(Cl)cc1	-14	-14
C/C=C/c1ccc2c(c1)O[C@@H](CN(C)C)[C@@H](C)CN([C@H](C)CO)S2(=O)=O	16	6
COc1ccc(CN(C)C[C@H]2Oc3ccc(NS(=O)(=O)c4ccc(OC)cc4)cc3C(=O)N([C@H](C)CO)C[C@H]2C)cc1	-10	-9
C[C@H](CO)N1C[C@H](C)[C@@H](CN(C)CC2CCCCC2)Oc2ccc(NS(C)(=O)=O)cc2C1=O	0	7
Cc1ccc(S(=O)(=O)N(C)C[C@H]2Oc3ccc(NC(=O)c4ccncc4)cc3C(=O)N([C@@H](C)CO)C[C@H]2C)cc1	3	3
CC(C)CC#Cc1ccc([C@@H]2[C@@H](CO)N3C(=O)CN(S(=O)(=O)c4ccccc4)C[C@@H]23)cc1	13	-2
OC[C@@H]1[C@@H](c2ccccc2)C2(CN(Cc3nccs3)C2)N1Cc1cccnc1	2	5

These rows are one share of the data; count on the stated rates, not on these rows.
